# Rango complex inh: qHTS Assay for Inhibitors of Rango (Ran-regulated importin-beta cargo) - Importin beta complex formation; Importin subunit beta-1 (Homo sapiens), Q14974; Rango CFP/YFP FRET sensor + importin beta, 45 min; Potency, µM (series often up to 92.2 µM), for the others: at the highest dose inhibition of complex formation; actives 0.031% (n = 340,000); AID 540263, 2011; active = rising FRET ratio curve, often small or poorly fitted; inconclusive = mostly compound fluorescence or quenching in the first reads; inactive = flat curves in all reads;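 note: potency is the fitted concentration of half-maximal effect; 0% = DMSO wells and 100% = buffer wells lacking importin beta; nearly all actives have a fitted effect of over 15% in size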
#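 FRET biosensor Rango (snurportin 1 IBB between N-terminal EYFP and C-terminal Cerulean), 50 nM in PBS/1 mM DTT/0.02% Tween-20/0.1% BSA, preincubated 5 min RT with compound; 0.125 microM importin beta added, 45 min RT, CFP/YFP FRET ratio read.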
# Rango release inh: qHTS Assay for Inhibitors of RanGTP induced Rango (Ran-regulated importin-beta cargo) - Importin beta complex dissociation | Snurportin-1 (Homo sapiens) + GTP-binding nuclear protein Ran (Homo sapiens) + Importin … | Potency, µM (highest dose often 46.1 µM), inactives show top-dose activity change, negative = inhibition | Biochemical FRET Rango-importin beta, RanGTP-induced dissociation | AID 540253, 2011 | actives 0.071% (n = 340,000); active means falling FRET ratio curve, often poorly fitted, with flat reads before Ran was added; inconclusive means other falling curves, or compound fluorescence or quenching; inactive means flat or rising ratio curve;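 note: potency is the fitted concentration of half-maximal effect; % of control where 0% means no effect; nearly all actives have a fitted effect of over 45% in size; -100% = wells without RanGTP and RCC1; the record marks most hits as doubtful in a second field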
#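 Rango (0.1 uM)–importin beta (0.25 uM) complex; RanGTP-RCC1 trigger; 45 min RT; CFP/YFP FRET read.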
# GLA inh pH 4.5: qHTS Assay for Inhibitors of Human alpha-Galactosidase at pH 4.5 | 230,000 tested, under 10 active | AID 1467, 2008 | Alpha-galactosidase A (Homo sapiens), P06280 | purified enzyme, 4-MU-alpha-Gal fluorescence, pH 4.5 | activity change, negative = inhibition, % at 105 µM; inconclusive = small, poorly fitted or top-dose-only inhibition, or a rising curve; inactive = flat fitted curve, though single readings scatter; no compound was filed as active;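 note: 0% = full activity with enzyme and -100% = basal without enzyme; dose as in the result columns while the protocol names 77 µM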
# Target sequence (P06280 whole entry, looked up): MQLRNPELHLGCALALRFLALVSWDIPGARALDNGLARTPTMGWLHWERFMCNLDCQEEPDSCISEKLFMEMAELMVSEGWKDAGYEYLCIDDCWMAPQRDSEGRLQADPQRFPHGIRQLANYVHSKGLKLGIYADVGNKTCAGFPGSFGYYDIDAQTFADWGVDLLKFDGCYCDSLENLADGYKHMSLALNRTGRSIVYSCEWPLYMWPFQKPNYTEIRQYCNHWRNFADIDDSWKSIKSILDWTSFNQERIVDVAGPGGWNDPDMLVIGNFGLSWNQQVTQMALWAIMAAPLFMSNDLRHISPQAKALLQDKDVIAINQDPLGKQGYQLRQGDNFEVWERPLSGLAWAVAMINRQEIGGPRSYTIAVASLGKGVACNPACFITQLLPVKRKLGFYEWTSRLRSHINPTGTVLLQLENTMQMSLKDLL
# miR-21 reporter: qHTS Assay for Modulators of miRNAs and/orActivators of miR-21 | HeLa miR-21 FLuc reporter, luciferase, 48 h | Potency, µM (series often up to 38.3 µM), for the others: top-dose reporter change, positive = more light | 340,000 tested, under 10 active; active = well fitted rising curve with a large enough effect; inconclusive = small, poorly fitted or top-dose-only effect; inactive = no such curve, though single readings can be large or run the other way;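 note: % of control where 0% means no effect; miR-21 action dims this reporter so a rising signal means less miR-21 action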
#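 Luminescence from a firefly luciferase reporter carrying a miR-21 binding site downstream, stably expressed under a CMV promoter in HeLa cells that make miR-21 endogenously, reports miRNA modulation after 48 h compound exposure up to approximately 40uM final.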
# The depositor's hits bear a star; u = inconclusive; x = not tested or not shown; & = joins results of further samples.
SMILES,Rango complex inh,Rango release inh,GLA inh pH 4.5,miR-21 reporter
CC1(C(=O)OCC(=O)Nc2nnc(-c3ccccc3)o2)CC1(Cl)Cl (stereo unspecified),-1.9%,-10.4%,x,x
O=C(NC1CCN(Cc2ccccc2)CC1)c1ccccc1NS(=O)(=O)c1ccc(F)cc1,-0.8%,1.0%,x,x
COc1ccccc1C(=O)Nc1ccccc1C(=O)NCc1ccco1,5.5%,2.1%,x,1.1%
CCOC(=O)c1ccc(NC(=O)c2cccc(C)c2[N+](=O)[O-])cc1,3.0%,0.0%,1.6,-24.0%
Cc1cccc(N2CCN(Cc3cnc(Cl)s3)CC2C)c1 (stereo unspecified),2.3%,4.1%,-5.1,0.5%
O=C(COc1ccc(S(=O)(=O)N2CCOCC2)cc1)NCCc1ccccc1,0.2%,-7.8%,x,x
COC(=O)CNC(=O)c1ccccc1F,-0.2%,16.1%,-2.8,0.3%
COc1ccc(C(=O)NCC2CCCO2)cc1OC (stereo unspecified),-2.5%,-10.1%,-1.9,-4.1%
C=CCn1c(SCc2nc3sc(C(=O)O)c(C)c3c(=O)[nH]2)nnc1-c1ccc(C(C)(C)C)cc1,u,-14.5%,0.2,2.5%
COc1cccc(-c2nn(-c3ccccc3)cc2/C=C\C(=O)c2cccs2)c1,u,-11.9%,-2.4,7.0%
NNC(=O)CSc1nnc(-c2ccccc2)n1-c1ccccc1,0.4%,2.6%,x,1.2%
O=C(NNc1ccccc1[N+](=O)[O-])Nc1ccc(Cl)c(Cl)c1,2.3%,-8.3%,-9.6,u

# Single records, from the list above:
# Cc1cccc(N2CCN(Cc3cnc(Cl)s3)CC2C)c1 (stereo unspecified) as listed: Rango complex inh = 2.3%; Rango release inh = 4.1%; GLA inh pH 4.5 = -5.1; miR-21 reporter = 0.5%
# O=C(NNc1ccccc1[N+](=O)[O-])Nc1ccc(Cl)c(Cl)c1 as listed: Rango complex inh = 2.3%; Rango release inh = -8.3%; GLA inh pH 4.5 = -9.6; miR-21 reporter = u
# COc1ccc(C(=O)NCC2CCCO2)cc1OC (stereo unspecified) as listed: Rango complex inh = -2.5%; Rango release inh = -10.1%; GLA inh pH 4.5 = -1.9; miR-21 reporter = -4.1%

# (further entries)
SMILES,Rango complex inh,Rango release inh,GLA inh pH 4.5,miR-21 reporter
COC(=O)c1ccc2[nH]c3cccc(/C(=C/c4ccccc4)c4ccccc4)c3c2c1,4.5%,-3.2%,x,0.2%
COCCCNC(=O)CSc1ccsc1[N+](=O)[O-],-0.9%,-4.6%,-22.1,8.1%
COc1ccc(C(=O)Nc2nnc(Cc3ccc(OC)c(OC)c3)s2)cc1,2.0%,-2.9%,x,-6.8%
O=C(OCC(=O)C12CC3CC(CC(C3)C1)C2)c1ccc(O)cc1O,-2.4%,-0.8%,x,x
COc1ccc(N2C(=O)c3ccccc3NC23CCCCC3)cc1,-1.2%,-0.4%,9.9,-24.5%
Cc1ccc(S(=O)(=O)Nc2ccccc2-c2ccccc2)cc1,8.1%,0.1%,u,25.3%
N#Cc1c(N)nc2c(c1-c1ccncc1)CCCCC2,2.4%,16.4%,0.9,-8.3%
N#Cc1c(NC(=O)C(=O)NCCCN2CCOCC2)sc2c1CCCC2,6.4%,-9.1%,x,-2.5%
COc1cccc(/C=C/C(=O)OCC(=O)NCC2CCCO2)c1OC (stereo unspecified),3.4%,0.5%,6.7,-2.2%
CN1c2cccc3cccc(c23)N(C)C1c1cccs1,-0.3%,-12.6%,-0.2,-0.5%
CCn1c(CN2CCCCC2)nc2cc(S(=O)(=O)N3CCCCC3)ccc21,1.5%,9.4%,x,x
C/C(=N\NC(=O)Cc1ccccc1)c1ccc(Br)s1,0.1%,11.5%,x,-4.4%
Cc1cccc(NC(=S)N2CCOCC2)c1C,11.4%,u,7.6,-2.4%
CC1(c2cccc(Br)c2)NC(=O)NC1=O (stereo unspecified),4.0%,3.0%,x,0.7%
CCOC(=O)C1=CN(Cc2cccc(F)c2)S(=O)(=O)N(C)C1c1ccc(C(F)(F)F)cc1 (stereo unspecified),1.6%,-11.9%,x,x
CCOC(=O)c1ccc(N2CCOCC2)c(NC(=O)COCC(=O)O)c1,-0.3%,-5.7%,-1.3,-1.9%
O=C(NCc1nc2ccccc2[nH]1)C1=C[C@@H](c2ccc3c(c2)OCO3)C[C@@H](OCc2ccc(CO)cc2)O1,x,x,-5.2,u
Cc1cc(C(=O)CSc2nc(N)cc(N)n2)c(C)n1CCc1ccc(F)cc1,-1.3%,-6.6%,2.0,13.0%
CCOc1ncccc1C(=O)OCC(=O)c1c(N)n(C)c(=O)n(C)c1=O,2.8%,-22.6%,-1.2,-1.4%
CCOC(=O)c1ccc(NC(=S)N2CCSC2c2ccc(Cl)cc2)cc1 (stereo unspecified),u,13.9%,-3.0,-6.6%
CC1Oc2ccccc2N(CC(=O)NCc2cccs2)C1=O (stereo unspecified),-1.3%,-0.4%,-25.4,-59.0%
Cc1ccc(C)c(N2C(=O)c3cc(N4CCOCC4)c([N+](=O)[O-])cc3C2=O)c1,2.7%,-8.3%,-6.7,-1.4%
Cn1ccnc1SCc1cn2cc(Br)ccc2n1,3.6%,-13.7%,5.3,18.5%
CCc1cc2c(=O)c(-c3cscn3)coc2cc1O,5.9%,0.5%,0.0,-35.0%
COc1ccc(C2=CC(=O)C[C@H](COCc3ccccc3)N(C(=O)OC(C)(C)C)O2)cc1,u,-12.7%,x,x
Cc1sc2c(c1C)c(=O)n(-c1ccccc1)c(=O)n2CC(=O)NCC1CCCO1 (stereo unspecified),-1.4%,10.0%,0.9,0.8%
O=C(NC(Nc1nc2ccc([N+](=O)[O-])cc2s1)(C(F)(F)F)C(F)(F)F)c1cccnc1,u,u,-5.3,26.6%
CN(C)C(=O)c1nc2ccc(Cl)cn2c1CNCc1ccccc1OC(F)(F)F,-0.9%,15.2%,1.2,-1.9%
COc1cccc(C2=CC(c3ccc(OC)c(OC)c3)NC(=S)N2)c1 (stereo unspecified),u,7.31µM*,3.8,1.3%
COCCN(C(=O)Cc1coc2cc(C)c(C)cc12)c1c(N)n(Cc2ccccc2)c(=O)[nH]c1=O,-1.1%,-10.7%,x,x
CC1CCCC(C)N1C(=O)COC(=O)c1ccc2c(c1)OCO2 (stereo unspecified),-3.3%,-17.0%,0.4,-30.2%
N=c1n(CC(=O)c2ccc(Br)cc2)c2ccccc2n1Cc1ccccc1,1.3%,23.5%,x,x
COc1ccccc1C(=O)COC(=O)C(NC(=O)Cc1ccccc1)C(C)C (stereo unspecified),-4.0%,9.1%,x,x
COc1ccc(NC(=S)N2CCN(C(=O)c3ccco3)CC2)cc1OC,-0.5%,-13.8%,x,-6.5%
Cc1nonc1C1CCCN1Cc1cn[nH]c1-c1ccc(-c2ccccc2)cc1 (stereo unspecified),0.7%,1.5%,-11.2,-22.0%
O=C(CCCn1c(SCc2ccccc2F)nc2ccccc2c1=O)NCC1CCCO1 (stereo unspecified),-1.2%,3.0%,-6.5,-0.3%
CC1(c2ccc3ccccc3c2)NC(=O)NC1=O (stereo unspecified),-1.0%,-13.2%,x,0.3%
CCOC(=O)C(=O)Nc1cc(C)nn1-c1nc2ccccc2[nH]1,-0.8%,-5.6%,-1.4,-2.7%
O=C(Cn1nc(-c2ccc3c(c2)OCCO3)ccc1=O)Nc1ccc(-n2cnnn2)cc1,-2.3%,-18.4%,14.4,0.5%
COc1cc(/C=N/NC(=O)C2C3CCCCC32C)cc(Br)c1O (stereo unspecified),-2.8%,-6.4%,9.7,-20.9%
CCC(=O)c1ccc(OCC(=O)OCC(=O)NC2CCCCCCC2)cc1,1.3%,7.3%,x,-2.3%
COCCCN1C(=O)/C(=C/c2ccc(CNS(=O)(=O)c3ccccc3)o2)C(C(=O)OC)=C1C,-2.2%,-1.0%,0.6,2.3%
CN(C)CCCNC(=O)/C(=C\c1ccc(-c2ccc(Br)cc2)o1)NC(=O)c1ccccc1,1.9%,-0.5%,-1.0,u
Cc1cccc(OCc2nnc(SCn3nnc4ccccc4c3=O)o2)c1,1.9%,-0.3%,-3.4,-16.0%
COc1cc(/C=C(/C#N)c2nc3ccccc3[nH]2)ccc1Oc1ncccc1[N+](=O)[O-],u,u,-3.6,-6.7%
COC(=O)/C=C1\NCCSC1=O,0.2%,2.6%,5.9,-5.7%
Cc1cccc(NCc2cc(Cl)ccc2O)n1,-0.1%,-11.2%,-1.9,-21.4%
CC(CNC(=O)COc1ccccc1)OC(=O)Nc1ccc(Cl)c(Cl)c1 (stereo unspecified),3.5%,-0.6%,-2.3,12.7%
COCCN1C(=O)N[C@@H](c2cccs2)C(C(=O)OC)=C1C,-0.3%,14.1%,1.8&-9.1,-2.0%
CCOC(=O)c1nnc(-c2ccccc2)nc1Oc1ccc(Cl)cc1,0.4%,30.3%,5.6,-7.1%
CCC(Oc1nc2ccccc2nc1-c1ccccc1NC(C)=O)C(=O)c1ccccc1 (stereo unspecified),1.0%,-14.4%,-1.8,0.6%
Cc1cccc(OCCNc2ccc(C(F)(F)F)cc2[N+](=O)[O-])c1,-1.3%,-5.6%,-7.3,-7.3%
CC1CCN(CC(=O)N2CCCc3c2c(=O)oc2ccc(OCc4ccccc4)cc32)CC1,-2.8%,-3.0%,2.4,12.8%&4.2%
CCN(CCCNC(=O)CNC(=O)c1nn(-c2ccc(OC)cc2OC)c(=O)c2ccccc12)c1cccc(C)c1,-0.4%,-5.8%,x,-7.2%
O=C(Nc1nc2c(s1)CCCC2)Oc1ccccc1,0.3%,-7.1%,6.2,-4.6%
C#Cc1ccc([C@@H]2C=C(C(=O)NC3CC3)O[C@H](OCCCCO)C2)cc1,-1.0%,-5.1%,1.8,-5.4%
Cc1nc2ccccc2c(C(=O)O)c1-c1ccccn1,-3.5%,-14.1%,x,x
COCCNC(=O)/C(C#N)=C/c1cc(Br)c(O)c(OC)c1,u,u,-6.1,-3.0%
CCOc1ccccc1C(=O)Nc1cc(Cl)ccc1O,-2.5%,1.8%,3.9,22.8%
O=C(c1ccc2c(=O)n(Cc3ccco3)c(=S)[nH]c2c1)N1CCN(c2ccccc2)CC1,2.2%,1.7%,12.5,0.3%
# The listing continues:
SMILES,Rango complex inh,Rango release inh,GLA inh pH 4.5,miR-21 reporter
O=C(CC(Cc1ccccc1)C(=O)O)Nc1ccc(Cl)c(Cl)c1 (stereo unspecified),u,1.4%,x,-0.5%
CN1CCN(C(=O)C2CCC(C)(C(=O)O)C2(C)C)CC1 (stereo unspecified),1.6%,14.8%,-1.2,6.7%
Cc1nn(-c2ccccc2)c(N2CCCC2)c1/C=N/NC(=O)c1ccccc1O,0.4%,7.6%,-29.9,1.4%
CC(C)c1ccc(C2CC(c3ccc(Br)cc3)=NN2C(N)=S)cc1 (stereo unspecified),4.5%,3.2%,-6.8,-46.5%
O=[N+]([O-])c1ccc(N2CCN(c3ccccc3F)CC2)c(S(=O)(=O)N2CCOCC2)c1,-2.1%,9.3%,-1.4,-0.9%
CC12CCC(C(=O)Nc3ccccc3Cl)([C@H](Br)C1=O)C2(C)C (stereo partly specified),6.4%,7.7%,-13.0,-3.5%
O=C1CC(N2CCN(c3ccccc3)CC2)C(=O)N1c1ccc(Cl)cc1 (stereo unspecified),-0.5%,9.2%,x,-7.3%
Cc1cccc(/C=N/NC(=O)c2ccc(NC(=O)c3cccc(Cl)c3)cc2)n1,8.2%,-3.3%,x,-1.3%
CCc1ccccc1NC(=O)COC(=O)c1cccs1,-3.8%,-8.0%,x,2.1%
OCCC1CN(CCCn2cccn2)CCN1C1CCCCC1 (stereo unspecified),0.8%,9.9%,0.4,-0.4%
N#C/C(=C\c1cccc([N+](=O)[O-])c1)C(=O)NCC1CCCO1 (stereo unspecified),-0.8%,30.6%,3.5,0.0%
COc1cc2c(cc1OC)C(C)N(C(=O)[C@@H](NC(=O)c1ccccc1)C(C)C)CC2 (stereo partly specified),3.1%,u,x,6.0%

# Source: PubChem

# Not all compounds are listed; rates above refer to the full screens.
